AID504770: growth inhibitors of E. coli YBA685 in a screen for V. cholerae RctB (chromosome II replication) inhibitors | E. coli YBA685 rctB-dependent plasmid, OD600 growth, 3 h; hits give low values | z-score (test concentration not listed) | actives 0.27% (n = 130,000) | AID 504770;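 active = z-score under -2 on both plates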;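 also: wells of about 30 µL received 100 nL stock; score is relative to mean and SD of the test wells; the first replicate is given; strong numbers were not always called active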
Ba CapD inh: blocks the Bacillus anthracis CapD enzyme; purified CapD enzyme, fluorescence intensity read-out; hits give low values; some hits fall short of the stated cut; z-score (concentration not given with the values); actives 0.23% (n = 140,000); AID 492967;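 active = z-score under -4 in either of two replicates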;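 also: stock transfer was 100 nL into about 40 µL; score is relative to mean and spread of the plate; one replicate is shown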
Starred values were filed as active, the others as inactive; / = no result given; & = joins results of further samples. These rows are one share of the data; rates above refer to the full screens.

SMILES | AID504770 | Ba CapD inh
O=C1CN(C2CCS(=O)(=O)C2)C(=S)N1c1ccccc1 (centres undefined) | 0.2 | /
CCOC(=O)C(NC(=O)c1ccccc1F)(Nc1sc2c(c1C#N)CCC(C)C2)C(F)(F)F (centres undefined) | / | -0.16
COC(=O)c1sccc1OC(=O)c1c(F)cccc1F | / | -0.31
O=c1c2c(c1=O)NCCCN2 | / | 0.03
Nc1nc(CSCCO)nc(Nc2ccccc2)n1 | -0.85 | 0.935
O=C(CCc1nc(-c2ccc(Cl)cc2)no1)OCc1ccc(Br)cc1 | -0.85 | -0.105
CCN(CC)Cc1cc(NC(=O)OCc2ccc(C(C)(C)C)cc2)ccc1O | / | -0.645
CC(C)(C)n1[nH]c(-c2ccccc2)cc1=O | / | 0.07
N/C(=N\c1nc2ccccc2o1)NC(=O)c1ccccc1NC(=O)c1ccccc1 | 0.9 | -0.185
CC1CCCCC1NC1=NCCS1 (centres undefined) | -0.45 | 0.045
CCOC(=O)c1c(-c2ccccc2)oc2c1cc(OC(=O)c1ccccc1OC)c1ccccc12 | / | 1.03
COc1ccc(O)c(C(=O)c2cnn(-c3ccccc3)c2)c1 | 1.15 | 1.29
Nc1ccccc1OC1CCCC1 | -0.75 | /
O=C(O)CN1C(c2ccccc2O)Nc2ccc(Br)cc2C1c1ccccc1 (centres undefined) | -0.35 | -0.43
CCN(CC)S(=O)(=O)c1cccc(C(=O)OCC(=O)c2cc(C)n(C3CC3)c2C)c1 | -0.1 | /
CC(OC(=O)C1CCCCC1)C(=O)Nc1ccc(Cl)cn1 (centres undefined) | -0.4 | /
COc1cc(N2C(=O)CSC2c2ccccc2)c(OC)cc1Cl (centres undefined) | -0.95 | -0.615
COc1ccc2c(c1)s/c(=N\NC(=S)NC(=O)CN1C(=O)CCC1=O)n2C | 0.75 | /
Cc1ccccc1NC(=O)c1cc2c3c(c1)C1C=CCC1CN3CC1CC=CC21 (centres undefined) | / | -0.485
O=C(NCc1cccc(Cl)c1)c1ccc(N2CC3CC(C2)c2cccc(=O)n2C3)c(NC(=O)c2ccc(F)cc2)c1 (centres undefined) | / | 0.045
COc1ccc(NS(=O)(=O)c2ccc(Cl)s2)cn1 | -0.6 | -0.545
O=C(NCCc1cccs1)C1CC1 | -0.5 | 0.555
S=C(NCCc1ccccc1)NCCc1c[nH]c2ccccc12 | 0.1 | -0.245
O=[N+]([O-])c1ccc(N2CCN(Cc3ccc(OCCCF)cc3)CC2)cc1 | / | -1.86
Cc1[nH]nc2c1C1(C(=O)N2)C(C#N)=C(N)Oc2ccc(Br)cc21 (centres undefined) | 1.7 | -1.36
N#C/C(=C\Nc1ccccc1)c1ccccc1 | -0.65 | -0.095
COc1ccc(/C=N/c2oc(-c3ccccc3)c(-c3ccccc3)c2C#N)cc1 | / | 0.59
CC1Sc2sc(=S)sc2SC(C)C1=O (centres undefined) | / | -0.76
CC1CCN(S(=O)(=O)c2ccc(C(=O)NCCSCc3ccco3)cc2)CC1 | 2.1 | /
CC1=C(C(=O)Nc2ccccc2)C(c2ccc(Cl)cc2)n2ncnc2N1 (centres undefined) | / | -0.38

Exported with tabs: part of the list above.
Compound	AID504770	Ba CapD inh
CC(OC(=O)C1CCCCC1)C(=O)Nc1ccc(Cl)cn1 (centres undefined)	-0.4	/
COc1cc(N2C(=O)CSC2c2ccccc2)c(OC)cc1Cl (centres undefined)	-0.95	-0.615

The results go on.
SMILES | AID504770 | Ba CapD inh
Cc1nnc(SCC(=O)O)o1 | -0.6 | /
CC(/C=N/O)=N\Nc1ccccc1 | / | -2.9
COc1cc(NC(=O)CN2C(=O)c3ccccc3C2=O)c(OC)cc1Cl | -0.8 | -0.01
CC(C)C1Cc2c(sc3[nH]c(=S)n(Cc4ccccc4)c(=O)c23)CO1 (centres undefined) | -0.35 | -0.01
CC(=O)c1ccc(S(=O)(=O)N2CCN(C(=O)Cc3ccc(Br)cc3)CC2)cc1 | / | -1.23
CC12CC3CC(C)(C1)CC(NCc1cccnc1)(C3)C2 | 0.45 | /
Cc1nc(Cc2nnc(SCc3cn4cccc(C)c4n3)o2)cs1 | -0.5 | /
CCOC(=O)CC1NCCc2cc(OCC)c(OCC)cc21 (centres undefined) | 0.55 | 1.68
CCN=Cc1c(O)n(C)c(=O)n(C)c1=O | -0.6 | /
CCOC(=O)c1cc2c(=O)n3ccccc3nc2n(C)c1=NC(=O)/C=C/c1ccccc1 | / | -1.58
COc1ccc(COC(=O)NNC(=O)Cc2ccsc2)c(Cl)c1OC | / | -0.115
O=c1cc(-c2ccccc2)oc2c1Cc1ccccc1-2 | 0.7 | 1.68
O=C(OCc1ccccn1)N1CCN(Cc2ccccc2OCc2ccccc2)CC1 | / | 0.055
CN(C)C=Nc1nonc1-c1ccccc1 | 2.3 | -0.095
O=C(Nc1ccc2c(c1)OCCCO2)C1CCCN(C(=O)c2ccc(Cl)cc2)C1 (centres undefined) | -0.05 | /
O=S(=O)(c1cccc(C(F)(F)F)c1)c1cnc(-c2ccncc2)nc1-c1ccncc1 | / | -0.85
O=C(NC(Cc1c[nH]c2ccccc12)C(=O)OCc1ccccc1)OCCCc1ccccc1 (centres undefined) | / | -0.765
COc1cc(OC)nc(CN2CCN(C(=O)c3cccc(C(F)(F)F)c3)CC2)n1 | / | -0.395
CCOC(=O)C1=C(c2ccccc2)OC(N)=C(C#N)C1c1ccccc1Cl (centres undefined) | / | 0.24
CN1CCN(CC(=O)N(c2ccccc2)c2ccc(O)cc2)CC1 | -0.2 | /
CCC1CCCCN1C(=O)CC(=O)N1CCCCC1CC (centres undefined) | 1 | -0.18
CN(C)C(=O)Oc1cccc2cccnc12 | -0.35 | /
CON(C)C(=O)c1cc(N(C)C)nc(N(C)C)n1 | / | -0.46
Cc1nc(N2CCOCC2)c2c(C)c(C(=O)NCC3COc4ccccc4O3)sc2n1 (centres undefined) | / | 4.85
O=C(CSc1nc2ccccc2o1)N1CCc2c([nH]c3ccccc23)C1C(F)(F)F (centres undefined) | 0.95 | -0.71
CCOC(=O)c1oc2ccc(CC/C(C)=N/NC(=O)c3ccoc3C)cc2c1C | 1.65 | /
NCCC(=O)N1c2ccccc2Sc2ccccc21 | -0.5 | 1.36
O=C(CCCN1C(=O)/C(=C\c2ccco2)SC1=S)Nc1ccccc1C(F)(F)F | 0.4 | -1.06
CCOC(=O)c1cc(NC(=O)CN2CCCC2)cc(C(=O)OCC)c1 | 0.65 | /
Cc1ccc(CN(C)C(=O)C2CC(=O)N(c3ccc4c(c3)OCCO4)C2)o1 (centres undefined) | -0.45 | /
O=C(CSc1nc2cc(Cl)ccc2s1)NC1CCS(=O)(=O)C1 (centres undefined) | -0.65 | /
O=C(c1ccco1)N1CCCC(C(F)(F)F)C1 (centres undefined) | 0 | /
c1ccn2c(c1)nc1nc3nonc3nc12 | -5.05* | 0.015
Cc1ccccc1NS(=O)(=O)c1cc(S(=O)(=O)Nc2ccccc2C)c2cccc3c2c1NC3=O | / | -0.63
CC(C)n1c(CCC(=O)O)ccc1-c1ccc(Br)cc1 | -0.15 | 2.52
CCC(=O)Nc1nc(-c2ccc(C)c(C)c2)cs1 | 0.9 | /
Cc1ccn2c(/C=N/OCc3ccc(F)cc3)c(-c3ccc(Cl)cc3)nc2c1 | / | 1.73
COCCN1Cc2cccc(C(=O)N3CCN(c4cccc(C)c4)C(C)C3)c2C1=O (centres undefined) | -0.55 | -0.48
CC1CNC(=O)NC1=O (centres undefined) | -0.2 | /
Cc1ccc(CC(C#N)C(N)=C(C#N)C#N)cc1 (centres undefined) | -1.05 | /
Cc1nc2ccc(Br)cc2c2c1C(=O)N(c1ccccc1N1CCCCC1)C2=O | / | -0.58
CC(NC(=O)C1CCCN(C(=O)c2cc3sccc3n2C)C1)c1ccccc1 (centres undefined) | -1.1 | -0.335
Cn1ccnc1Sc1ncnc2sccc12 | 0.35 | /
c1ccc(-c2csc3ncnc(NCc4ccccn4)c23)cc1 | 0.15 | -0.2
O=C(c1ccoc1)N(CCO)Cc1ccccc1 | / | -0.255
Cc1cc(C)c(S(=O)(=O)NCC(=O)N2CCc3ccccc3C2)c(C)c1 | 1.2 | /
Cc1cccc(N2CCN(C(=O)CSCc3c(C)noc3C)CC2)c1C | -0.8 | /
CC(OC(=O)c1cccn1C)C(=O)Nc1ccccc1C#N (centres undefined) | -1.15 | /
O=C(COCc1cc(-c2ccco2)on1)NC1CCCC1 | -0.2 | 0.315
Cc1c(/C=N/N=c2\sc3ccccc3n2C)n(C)n(-c2ccccc2)c1=O | 0.55 | /
Cc1ccc(NC(=O)CCc2nnc3ccc(NCCCc4ccccc4)nn23)cc1 | -1.1 | 0.29
N#CCCN(C(=O)C12CC3CC(CC(Cl)(C3)C1)C2)c1ccccc1 | -0.9 | 0.485
CCC(C)c1ccc(NC(=O)CN(CC)Cc2nc3ccccc3c(=O)[nH]2)cc1 (centres undefined) | -0.4 | /
CCN(CC)c1ccc(/C=C2/C(C)=C(C#N)c3nc(N)c(C#N)c(C)c32)cc1 | / | 0.055
Cc1ccc(S(=O)(=O)c2nc(S(=O)(=O)c3ccccc3)sc2N2CCCC2)cc1 | -0.6 | -0.99
CCN(CC)S(=O)(=O)c1ccc2oc(C(=O)O)c(C)c2c1 | -1 | 0.655
CCC(C)(C)NS(=O)(=O)c1cccs1 | -0.65 | /
CCOC(=O)CSc1nc2ccc(N)cc2s1 | / | -0.29
Cc1cccc(OCCNC(=O)c2sc3nc[nH]c(=O)c3c2C)c1 | -0.5 | /
Cn1ccnc1C(=O)c1cc(-c2ccco2)nc2ccccc12 | 0.65 | -2.19

Continuation.
SMILES | AID504770 | Ba CapD inh
CCOC(=O)CCc1cccc2c1CCC2=O | -0.15 | 0.825
CCOC(=O)c1cc(Cl)c(C(=O)OCC)cc1Cl | -0.35 | /
CC1=CC(C)=NCCN1 | -0.3 | /
CCOC(=O)c1cc2occc2n1CC(=O)N1CCCc2ccccc21 | 0.05 | /
CCCn1c(C(C)O)nc2ccccc21 (centres undefined) | 0.5 | -1.07
O=C(O)CCC(=O)c1c[nH]c2ccccc12 | -0.55 | 1.51
COc1ccc(OC)c(Nc2nc3nonc3nc2Nc2c(C)n(C)n(-c3ccccc3)c2=O)c1 | / | 0.12
CCC(C)Sc1nc2c(c(=O)[nH]c(=O)n2C)n1C (centres undefined) | / | 0.18
N/C(=N\OC(=O)NC1CCCCC1)c1ccc(Cl)cc1 | 1.7 | -0.75
Cc1ccc(SCC(=O)Nc2ccc(C#N)cc2)cc1 | 0.1 | -0.11
COc1ccc(-c2nc3ccccc3o2)cc1NC(C)=O | 0.35 | 48.7
Cc1ccc(C)c(Cn2c(=O)n(CCCC(=O)NCc3ccco3)c(=O)c3sccc32)c1 | 1.2 | -0.175
O=C(O)c1cccc(-n2cccc2C=C2C(=O)c3ccccc3C2=O)c1 | 1.35 | -0.37
CCCc1oc2c(cc(NS(=O)(=O)c3ccc(OC)cc3)c3ccccc32)c1C(=O)OCC | / | 2.19
O=C(O)C1CCCCC1C(=O)Nc1nncs1 (centres undefined) | -0.8 | 0.035
O=C1CCOc2ccc(F)cc21 | / | 64.3
c1ccc([C@H]2CN3CCSC3=N2)cc1 | 0.1 | 1.22&-0.22
CC(C)NC(=O)C(C)Oc1ccccc1 (centres undefined) | -0.25 | /
O=C(/C=C/c1ccc(S(=O)(=O)N2CCOCC2)cc1)NC(=S)NC1CC1 | -0.35 | /
O=c1c(CN(c2cccc(C(F)(F)F)c2)S(=O)(=O)c2ccc(Cl)cc2)cc2cccc3c2n1CCC3 | / | 0.075
O=C(c1ccc(Br)cc1)c1cnc(-c2ccc(Cl)cc2)s1 | / | 0.06
CCOC(=O)C1=C(O)/C(=C/c2ccco2)SC1=Nc1ccc(F)cc1 | -0.3 | -0.915
COc1cc(OC)c(OC)cc1CN1CCN(S(=O)(=O)c2ccc(NC(C)=O)cc2)CC1 | -0.6 | /
CCc1nnc(NC(=O)Nc2ccc3c(c2)N(C)C(=O)CS3)s1 | 0.25 | 0.455
CC1(C)OC(=O)C(=CNC(CCC(=O)O)C(=O)O)C(=O)O1 (centres undefined) | -0.05 | 0.69
CC1C(=O)N2CCCc3cc(S(=O)(=O)N4CCc5ccccc54)cc1c32 (centres undefined) | 0.25 | /
CCC(C)n1c(SCc2ccccc2)nc2ccsc2c1=O (centres undefined) | -0.7 | -0.33
CCc1cc(=O)oc2c(C)c(OC3CCCCC3=O)ccc12 (centres undefined) | -0.45 | 12.5
Cc1ccc(-c2cc(=O)c(=O)[nH][nH]2)cc1 | 2.1 | 0.29

17 of these compounds, reformatted:
Molecule	AID504770	Ba CapD inh
Cc1ccc(SCC(=O)Nc2ccc(C#N)cc2)cc1	0.1	-0.11
COc1ccc(-c2nc3ccccc3o2)cc1NC(C)=O	0.35	48.7
Cc1ccc(C)c(Cn2c(=O)n(CCCC(=O)NCc3ccco3)c(=O)c3sccc32)c1	1.2	-0.175
O=C(O)c1cccc(-n2cccc2C=C2C(=O)c3ccccc3C2=O)c1	1.35	-0.37
CCCc1oc2c(cc(NS(=O)(=O)c3ccc(OC)cc3)c3ccccc32)c1C(=O)OCC	/	2.19
O=C(O)C1CCCCC1C(=O)Nc1nncs1 (centres undefined)	-0.8	0.035
O=C1CCOc2ccc(F)cc21	/	64.3
c1ccc([C@H]2CN3CCSC3=N2)cc1	0.1	1.22&-0.22
CC(C)NC(=O)C(C)Oc1ccccc1 (centres undefined)	-0.25	/
O=C(/C=C/c1ccc(S(=O)(=O)N2CCOCC2)cc1)NC(=S)NC1CC1	-0.35	/
O=c1c(CN(c2cccc(C(F)(F)F)c2)S(=O)(=O)c2ccc(Cl)cc2)cc2cccc3c2n1CCC3	/	0.075
O=C(c1ccc(Br)cc1)c1cnc(-c2ccc(Cl)cc2)s1	/	0.06
CCOC(=O)C1=C(O)/C(=C/c2ccco2)SC1=Nc1ccc(F)cc1	-0.3	-0.915
COc1cc(OC)c(OC)cc1CN1CCN(S(=O)(=O)c2ccc(NC(C)=O)cc2)CC1	-0.6	/
CCc1nnc(NC(=O)Nc2ccc3c(c2)N(C)C(=O)CS3)s1	0.25	0.455
CC1(C)OC(=O)C(=CNC(CCC(=O)O)C(=O)O)C(=O)O1 (centres undefined)	-0.05	0.69
CC1C(=O)N2CCCc3cc(S(=O)(=O)N4CCc5ccccc54)cc1c32 (centres undefined)	0.25	/

From PubChem
